NPYLR7 agonist = agonists of mosquito NPYLR7 receptor, primary screen, cell-based, Aedes aegypti, calcium fluorescence, mosquito biting behavior; hit rate 0.15% among 270,000; activation, % at 10 µM; Aedes aegypti neuropeptide Y-like receptor 7 (NPYLR7); HEK293T NPYLR7/Galpha15, GCaMP6s calcium fluorescence; in the data active = activation above about 40%;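 note: 0% = vehicle and 100% = reference agonist at the receptor; some compounds past the cut are filed as inactive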
NPYLR7 agonist max-min = further read-out of NPYLR7 agonist, marked with its call; activation, %; measured here: Max-Min RFU normalised activation; some inactives read as strong as hits;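 span of the calcium signal over five minutes; 0% = vehicle and 100% = native peptide agonist; compound fluorescence can raise it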
* marks the source's active call; other numbers are inactive results. These rows are one share of the data; count on the stated rates, not on these rows.

Order of values: NPYLR7 agonist, NPYLR7 agonist max-min
1) CC(C)N(CC(=O)N1c2ccccc2-n2cccc2C1c1ccc(F)cc1)C(=O)Nc1c(Cl)cccc1Cl (stereo unspecified)
  13, 12
2) O=C(CSc1nnc(NC2CC2)s1)NCC1CCCO1 (stereo unspecified)
  -1, 6
3) CN1CCC2(CCN(C(=O)c3cc(-c4ccc(O)cc4)n[nH]3)CC2)C1
  8, 8
4) Fc1ccccc1-c1nnc(SCc2cc3c(cc2Br)OCO3)o1
  1, 2
5) O=S(=O)(c1ccccc1F)N1CCN(c2nnnn2-c2ccccc2)CC1
  -4, -7
6) COC(=O)N1N=C(c2ccc(Br)cc2)CC1(O)C(F)(F)F (stereo unspecified)
  1, 1
7) N#Cc1ccc(Sc2ccccc2C(=O)O)cc1
  2, -1
8) COC(=O)c1cccc(CN2C(=O)C(C)Sc3ccc(C(F)(F)F)cc32)c1 (stereo unspecified)
  11, 9
9) COc1ccc(CN(CC2CCCO2)C(=O)c2ccco2)cc1OS(=O)(=O)c1ccc(F)cc1 (stereo unspecified)
  -5, -3
10) CC(C)CC(C)NC(=O)C1CC(=O)N(N(C)c2ccccc2)C1 (stereo unspecified)
  12, 4
11) C=CCOC(=O)c1sc2nc(CN(CC(O)COc3ccccc3C)C(C)C)[nH]c(=O)c2c1C (stereo unspecified)
  -5, -3
12) O=C(O)c1ccc2c(c1)CCN2S(=O)(=O)c1ccc(N2CC(C(=O)O)CC2=O)cc1 (stereo unspecified)
  -2, 23
13) C=CC(=O)N1CCCN(c2nc3ccccc3nc2C(=O)OCC)CC1
  4, 2
14) C=CCN(CC(=O)Nc1ccc(N2CCN(C(=O)NC(C)C)CC2)cc1)C(=O)c1ccc(Cl)cc1
  5, 3
15) CC(=O)NCC1CCN(c2ccnc3ccc(Br)cc23)CC1
  0, -1

Additional records follow:
Order of values: NPYLR7 agonist, NPYLR7 agonist max-min
16) O=C(NCc1cccs1)NCC1CN(c2ccc3c(c2)OCO3)C(=O)O1 (stereo unspecified)
  -1, 8
17) Cc1cccc(CO[C@]2(C(=O)NCC3CC3)CC(OCc3cccc(Cl)c3)[C@H](O)[C@H](O)C2)c1 (stereo partly specified)
  9, 17
18) CC(=O)Nc1ccc(S(=O)(=O)N(CC(=O)N2CCc3sccc3C2c2ccccc2)C(C)(C)C)cc1 (stereo unspecified)
  -6, 5
19) Cc1cc(C)c(CNC(=O)c2oc3ccccc3c2C)c(=O)[nH]1
  8, 7
20) O=C(Cn1nnnc1CN1CCOCC1)NCCCn1ncc2ccccc21
  -4, -5
21) Cc1cccc(Cn2nc(-c3cccs3)c3sc(C)nc3c2=O)c1
  -1, -3
22) CC1=CC(=O)N(CCc2ccncc2)C1=O
  -5, -14
23) COc1ccc(C(=O)NCCc2csc3nc(-c4ccc(OC)c(OC)c4)nn23)cc1
  4, 2
24) Cc1ccc(F)c(N2CCN(C(=O)c3ccco3)C(C)C2=O)c1 (stereo unspecified)
  -9, -2
25) CCOC(=O)c1sc(NC(=O)C(CC(C)C)N2C(=O)c3ccccc3C2=O)nc1C (stereo unspecified)
  0, -2
26) CN(C(=O)C1CCCOC1)c1ccnn1C (stereo unspecified)
  1, -1
27) C=CCN(C(=O)Cc1c(C)[nH]c(=O)[nH]c1=O)C(C)C
  -1, 4
28) CC(NC(=O)CCn1cnc2sc3c(c2c1=O)CCCC3)c1ccccc1 (stereo unspecified)
  3, 3
29) CC(=O)Nc1ccc(NC(=O)c2ccc(F)c(F)c2)cc1C
  1, 3
30) Cc1nnn(CCNC(=O)c2sccc2C(C)C)n1
  9, 3

(next part)
Order of values: NPYLR7 agonist, NPYLR7 agonist max-min
31) CN(Cc1cccs1)C(=O)Cn1cc([N+](=O)[O-])ccc1=O
  2, 8
32) C=CCOc1ccc(-c2ccc(C#N)cc2)cc1
  1, 1
33) COc1ccccc1C(=O)N1CCN(CC(OCc2ccc(C(F)(F)F)cc2)c2ccc(Cl)cc2)CC1 (stereo unspecified)
  4, 2
34) O=C(Nc1ccccc1)Nc1ccccc1-c1csc(N2CCOCC2)n1
  0, -2
35) O=C(c1ccc(Cl)cc1)N1CCCC(OCc2ccc(F)cc2)C1 (stereo unspecified)
  3, 0
36) Cc1ccc(S(=O)(=O)Nc2ccc3c(c2)C(=O)Nc2ccccc2O3)s1
  9, 5
37) COc1ccc(CC(=O)NCc2nnc(SCC(=O)N3CCCc4ccccc43)n2-c2ccc([N+](=O)[O-])cc2)cc1
  -7, -4
38) O=C(NC(C(=O)N/N=C\c1cc(Br)cs1)c1n[nH]c(=O)c2ccccc12)c1ccccc1 (stereo unspecified)
  7, 4
39) COC(=O)c1cc(Cl)c2c(c1)CC(CNC(=O)C(C)Cl)O2 (stereo unspecified)
  -18, -2
40) N#Cc1cc(N2CCC(S(N)(=O)=O)CC2)c2ccccc2n1
  3, -2
41) CCN(CC(=O)Nc1ccc(OC)cc1)Cc1cn2ccccc2c1C#N
  -7, -7
42) CC(=O)Nc1ccc(NC(=O)C=Cc2ccco2)cc1
  14, 6
43) CS(=O)(=O)N1CCC(C(=O)N2CCN(CC(=O)c3cccs3)CC2)CC1
  0, 0
44) COc1ccc(CC2(CCC(=O)NCC3COc4ccccc4O3)CCC(=O)N2)c(F)c1 (stereo unspecified)
  20, 0
45) Cc1nc(C(=O)N2CCc3c(c(C(=O)N4CCOCC4)nn3CCc3ccccc3)C2)cs1
  21, 9

(cont.)
Order of values: NPYLR7 agonist, NPYLR7 agonist max-min
46) CCc1ccc(N2NC(=O)/C(=C/c3ccc4c(c3)n(C)c(=O)n4C)C2=O)cc1
  1, 0
47) COc1cccc(C)c1Oc1ccc2c(C3CC3)noc2n1
  -2, -3
48) c1coc(-c2ccccc2-c2nccn2C2CCSC2)c1 (stereo unspecified)
  8, 4
49) CCn1cccc(-c2nnc(SCc3cccc(F)c3)n2C)c1=O
  4, 1
50) COc1cccc(-n2c(SCC(=O)Nc3cc(C)on3)nc3c(c2=O)SCC3)c1
  -7, -11
51) COc1ccc2cc(C3C(C(=O)OC(C)(C)C)=C(C)OC(=N)C3C#N)c(Cl)nc2c1 (stereo unspecified)
  1, 2
52) COc1cccc(-c2ccc(NC(=O)C3CCCN(Cc4cnn(C)c4C)C3)cc2)c1 (stereo unspecified)
  11, 2
53) Oc1ccc(C(O)Cn2cc(CCc3ccccc3)nn2)cc1 (stereo unspecified)
  22, 6
54) NC(=O)c1cc(S(=O)(=O)N2CCCC2)ccc1OCc1ccc(F)cc1Cl
  1, -2
55) O=C(O)c1ccc(-c2ccc(/C=C3/SC(=Nc4ccccc4)N(c4ccccc4)C3=O)o2)cc1
  -12, -18
56) O=C1C(=Cc2ccco2)SC(=S)N1c1cccnc1
  6, 15
57) CCc1nnc(NC(=O)CSc2nc(=O)n(CCO)c3c2CCCC3)s1
  -6, -13
58) COc1ccc(C(=O)N2CSCC2C(=O)N(C)C2CC2)c(Br)c1 (stereo unspecified)
  1, 14
59) CCc1csc(CNC(=O)c2ccc(N(C)C)nc2)n1
  1, -2
60) CCOC(=O)C1(CCOc2ccccc2)CCN(Cc2cnn(-c3ccccc3)c2)CC1
  6, 9

Next part.
Order of values: NPYLR7 agonist, NPYLR7 agonist max-min
61) CCOC(=O)C1CCCN(C(=O)c2oc3ccc(C)cc3c2C)C1 (stereo unspecified)
  6, 2
62) O=C(C(Br)=CNc1ccc(F)cc1)C(F)(F)F
  0, -4
63) COc1ccccc1-c1cc(C(=O)N2CCN(c3ccccc3C)CC2)nc2cc(C(C)(C)C)nn12
  -4, 3
64) CCN1CCN(c2nc3c(c(=O)[nH]c(=O)n3C)n2CCSc2ncccn2)CC1
  2, 4
65) COCC(C)NC(=O)CCc1nc2sc3c(c2c(=O)[nH]1)CCC3 (stereo unspecified)
  20, 8
66) Cc1c(Cl)cccc1NC(=O)Cn1c2ccccc2c(=O)c2ccccc21
  -4, -6
67) O=C(c1csc(-c2cccnc2)n1)N1CCOC(c2ccc(Cl)cc2)C1 (stereo unspecified)
  -1, -1
68) O=C1CC2(CCN(Cc3ccc(OCc4ccccn4)cc3)CC2)CN1
  0, -2
69) O=C(c1c[nH]c2ccc(F)cc2c1=O)N1CCOC(C(F)(F)F)C1 (stereo unspecified)
  1, -7
70) Cc1cc(NC(=O)C=Cc2ccco2)c(C)cc1NC(=O)C=Cc1ccco1
  2, 1
71) CCCCc1nc(N2CCCN(C(=O)Nc3ccccc3C(F)(F)F)CC2)c2c(-c3ccc4ccccc4c3)noc2n1
  16, 4
72) CC(C)C(=O)Nc1ccc(SCCN2CCCCC2)nn1
  0, 0
73) O=C(c1ccc[n+]([O-])c1)N1CCC2(CCCN(CC3CCCCC3)C2)C1 (stereo unspecified)
  1, -2
74) COCCOC(=O)C1=C(C)N(C)C(=O)NC1c1ccccc1F (stereo unspecified)
  -8, -13
75) COCCC(=O)Nc1ccccc1C(=O)NCc1cccc(C)c1
  7, 5

Given as labelled records: part of the list above
[66] Cc1c(Cl)cccc1NC(=O)Cn1c2ccccc2c(=O)c2ccccc21
  NPYLR7 agonist: -4	NPYLR7 agonist max-min: -6

[73] O=C(c1ccc[n+]([O-])c1)N1CCC2(CCCN(CC3CCCCC3)C2)C1 (stereo unspecified)
  NPYLR7 agonist: 1	NPYLR7 agonist max-min: -2

[62] O=C(C(Br)=CNc1ccc(F)cc1)C(F)(F)F
  NPYLR7 agonist: 0	NPYLR7 agonist max-min: -4

(listing goes on)
Order of values: NPYLR7 agonist, NPYLR7 agonist max-min
76) COc1ccc(CCN(C)C(=O)c2csc(CSc3nnc(C)n3-c3cccc(Cl)c3)n2)cc1OC
  -2, 9
77) CC(C)c1ccc(OCC(=O)OCC(=O)N2CCNC2=O)cc1
  8, 2
78) Cc1ccc(-n2nc(-c3ccc(C)c(C)c3)cc2C(=O)O)c(C)c1
  13, 24
79) COc1ccc(C23CC4CC(CC(C(=O)N5CCc6ccccc6C5)(C4)C2)C3)cc1
  -2, -1
80) O=C(Nc1cccc2ccccc12)c1cnn2c(C(F)(F)F)cc(-c3ccccc3)nc12
  -11, -17
81) COc1cccc(CN2CCC2(C)C(=O)Nc2cccc(NS(C)(=O)=O)c2)c1OC (stereo unspecified)
  10, 3
82) CC(=O)O[C@@H](C)C(=O)N1CCC(c2nc(-c3ccccc3Cl)no2)CC1
  3, -2
83) Cc1nc(NC(=O)C2CCCCN2S(=O)(=O)c2ccccc2)sc1C(=O)O (stereo unspecified)
  5, 5
84) Cc1cccnc1N1CCN(C(=O)c2cn(CC3CCCNC3)nn2)CC1 (stereo unspecified)
  5, 1
85) COc1ccccc1-c1nnc(SC(C)C(=O)NCC2CCCO2)n1C (stereo unspecified)
  0, -1
86) O=S1(=O)CCN2C(SCc3ccccc3)=NSC2=N1
  4, 2
87) Cc1noc(CN(C)Cc2cnn(C(C)C)c2)n1
  3, 2
88) CCCN(Cc1nccn1C)C(=O)c1cc(CC(C)C)nn1C
  6, -2
89) Cn1c(C(O)c2ccc(Cl)cc2)nc(Cl)c1Cl (stereo unspecified)
  -2, -5
90) CCCc1n[nH]c(=S)n1CC(=O)N(C1CC1)C(C)c1ccccn1 (stereo unspecified)
  3, -7

Among those listed so far, these contain an NH in an aromatic ring.
Order of values: NPYLR7 agonist, NPYLR7 agonist max-min
3) CN1CCC2(CCN(C(=O)c3cc(-c4ccc(O)cc4)n[nH]3)CC2)C1
  8, 8
11) C=CCOC(=O)c1sc2nc(CN(CC(O)COc3ccccc3C)C(C)C)[nH]c(=O)c2c1C (stereo unspecified)
  -5, -3
19) Cc1cc(C)c(CNC(=O)c2oc3ccccc3c2C)c(=O)[nH]1
  8, 7
27) C=CCN(C(=O)Cc1c(C)[nH]c(=O)[nH]c1=O)C(C)C
  -1, 4
38) O=C(NC(C(=O)N/N=C\c1cc(Br)cs1)c1n[nH]c(=O)c2ccccc12)c1ccccc1 (stereo unspecified)
  7, 4
64) CCN1CCN(c2nc3c(c(=O)[nH]c(=O)n3C)n2CCSc2ncccn2)CC1
  2, 4
65) COCC(C)NC(=O)CCc1nc2sc3c(c2c(=O)[nH]1)CCC3 (stereo unspecified)
  20, 8
69) O=C(c1c[nH]c2ccc(F)cc2c1=O)N1CCOC(C(F)(F)F)C1 (stereo unspecified)
  1, -7
90) CCCc1n[nH]c(=S)n1CC(=O)N(C1CC1)C(C)c1ccccn1 (stereo unspecified)
  3, -7

Going on with the list.
Order of values: NPYLR7 agonist, NPYLR7 agonist max-min
91) CC(C)Cc1nnc(C(C)Sc2nc3ncc(Cl)cc3[nH]2)o1 (stereo unspecified)
  -3, -6
92) COc1ccc2c(c1)C(=O)N(C)C(=O)C2(C)C
  -4, -5
93) COC(=O)c1ccccc1NC(=O)c1nn(-c2ccc(C)cc2)c(=O)cc1OC
  4, 0
94) CCCCC(CC)C(=O)N1CCC(Cc2ccc(OC)cc2)CC1 (stereo unspecified)
  -1, 9
95) C[C@@H]1O[C@@H](OC[C@H]2O[C@@H](Oc3c(-c4ccc(O)c(O)c4)oc4cc(O)cc(O)c4c3=O)[C@H](O)[C@@H](O)[C@@H]2O)[C@H](O)[C@H](O)[C@H]1O
  -4, -8
96) COc1ccc(C(=O)N(Cc2cccc(C)c2)[C@@H]2CCCCC2NC(=O)[C@H]2CCCN2C(=O)COc2ccc(Cl)cc2)cc1 (stereo partly specified)
  7, 12
97) N#Cc1cnc(Nc2ccc3c(c2)CCC3)nc1N
  4, 4
98) COCc1cc(C)nc(N/N=C\c2ccccc2OCc2ccccc2Cl)c1C#N
  0, 7
99) CC(C)(C)c1ccc2c(c1)CC(CNC(=O)c1ccccc1C(F)(F)F)O2 (stereo unspecified)
  22, 25
100) CC(C)(C)CN1CC(NC(=O)c2cccc(F)c2)CC1=O (stereo unspecified)
  10, 7
101) C[C@@H]1CN(Cc2nnnn2CC(=O)N2CCN(C3CCCC3)CC2)C[C@H](C)O1
  5, 5
102) CC(C)N(CC1CC1)C(=O)c1ccc(-n2cnnc2)cc1Cl
  -7, -8
103) CCc1nccc(CN2CCCC(CCc3ccccc3C(F)(F)F)C2)n1 (stereo unspecified)
  0, 2
104) CNCc1cn(C[C@H]2O[C@@H](CC(=O)N3CCN(c4ccccc4OC)CC3)[C@H](O)[C@@H]2O)nn1
  -8, -15
